Ran FRET: RanGTP/importin-beta interaction disruptors – biochemical, CFP-Ran/YFP-importin-beta FRET, RCC1, cell-free, primary screen (AID 434961) | CFP-Ran/YFP-importin-beta FRET, cell-free; stronger effect = higher value | inhibition, % | hit rate 0.2% among 7,700;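 active means more than half of the replicate wells above 15% inhibition; inconclusive means exactly half above it; inactive means fewer than half above it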;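 further: 0% = DMSO wells and 100% inhibition = RanGDP control wells on each plate; stock of unstated strength diluted about 400-fold; mean of two wells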
Numbers without * were called inactive; ? = inconclusive. This is a subset; rates above refer to the full screens.

SMILES | Ran FRET
C[C@@H]1CN([C@@H](C)CO)C(=O)c2cc(NC(=O)CCCN(C)C)ccc2O[C@@H](C)CCCCO[C@H]1CN(C)C(=O)CCCN(C)C | -5.5
C[C@@H]1CN([C@@H](C)CO)C(=O)c2cc(N(C)C)ccc2O[C@@H](C)CCCCO[C@H]1CN(C)C(=O)C1CCCCC1 | -3.0
C[C@H](CO)N1C[C@H](C)[C@H](CN(C)C(=O)Nc2ccc(F)cc2)Oc2ccc(NC(=O)Nc3ccc4c(c3)OCO4)cc2C1=O | 2.9
C[C@H]1CN([C@@H](C)CO)C(=O)c2cc(NC(=O)CCC(F)(F)F)ccc2O[C@@H]1CN(C)C | -0.4
C[C@H]1CN([C@@H](C)CO)C(=O)c2cc(NS(C)(=O)=O)ccc2O[C@@H]1CN(C)C | 1.0
C[C@H](CO)N1C[C@H](C)[C@@H](CN(C)C(=O)Nc2ccccc2)Oc2ccc(NC(=O)CCC(F)(F)F)cc2CC1=O | -1.1
C[C@H](CO)N1C[C@H](C)[C@H](CN(C)C(=O)Nc2ccc(F)cc2)Oc2ccc(NS(=O)(=O)c3cn(C)cn3)cc2CC1=O | 2.5
C[C@@H]1CN([C@@H](C)CO)C(=O)c2cc(NC(=O)Cn3cnnn3)ccc2O[C@H]1CN(C)C(=O)Nc1ccc(F)cc1 | 4.9
C[C@@H]1CN([C@H](C)CO)C(=O)c2cccc(NS(C)(=O)=O)c2O[C@@H]1CN(C)Cc1ccc(Oc2ccccc2)cc1 | -6.1
C[C@H](CO)N1C[C@H](C)[C@H](CN(C)C)Oc2c(NC(=O)Nc3ccc(C(F)(F)F)cc3)cccc2C1=O | -2.3
COc1ccc(CN(C)C[C@@H]2Oc3c(NS(=O)(=O)c4cn(C)cn4)cccc3C(=O)N([C@@H](C)CO)C[C@H]2C)cc1 | 5.7
Cc1noc(C)c1S(=O)(=O)Nc1ccc2c(c1)C(=O)N([C@H](C)CO)C[C@H](C)[C@@H](CN(C)C)O2 | -2.3
C[C@@H]1CN([C@@H](C)CO)C(=O)Cc2cc(NS(=O)(=O)c3cn(C)cn3)ccc2O[C@H]1CN(C)S(=O)(=O)c1ccc(Cl)cc1 | -7.4
C[C@@H]1CN([C@@H](C)CO)C(=O)CCCn2cc(nn2)CO[C@H]1CN(C)C(=O)c1cc(-c2ccccc2)on1 | 0.2
C[C@H](CO)N1C[C@H](C)[C@@H](CN(C)S(=O)(=O)c2cccs2)OCCCC[C@H](C)Oc2ccc(N(C)C)cc2C1=O | 5.8
C[C@H](CO)N1C[C@H](C)[C@H](CN(C)Cc2ccc(F)cc2)Oc2ncc(-c3ccc(F)cc3)cc2C1=O | 6.7
C[C@H](CO)N1C[C@H](C)[C@@H](CN(C)Cc2ccccc2)OCCCC[C@H](C)Oc2ccc(N(C)C)cc2C1=O | 3.1
C[C@@H]1CCCCO[C@H](CN(C)S(C)(=O)=O)[C@H](C)CN([C@@H](C)CO)C(=O)c2cc(NC(=O)Nc3ccccc3)ccc2O1 | 1.9
Cc1noc(C)c1S(=O)(=O)N(C)C[C@H]1Oc2c(NC(=O)C3CCOCC3)cccc2C(=O)N([C@H](C)CO)C[C@H]1C | -2.3
C[C@H]1CN([C@@H](C)CO)C(=O)c2cccc(NC(=O)C3CCOCC3)c2O[C@@H]1CN(C)C | 5.3
C[C@@H]1CCCCO[C@@H](CN(C)C(=O)c2ccccc2)[C@@H](C)CN([C@@H](C)CO)C(=O)c2cc(NC(=O)Nc3ccc(F)cc3)ccc2O1 | -4.9
C[C@@H]1CN([C@H](C)CO)C(=O)c2cc(N(C)C)ccc2O[C@@H](C)CCCCO[C@@H]1CN(C)C(=O)CCCN(C)C | 1.3
CNC[C@H]1Oc2c(NC(=O)c3ccncc3)cccc2C(=O)N([C@H](C)CO)C[C@@H]1C | -2.7
C[C@H](CO)N1C[C@H](C)[C@H](CN(C)C(=O)Nc2ccc(C(F)(F)F)cc2)Oc2ccc(NS(=O)(=O)c3ccccc3)cc2CC1=O | -2.8
C[C@@H]1CCCCO[C@@H](CN(C)C(=O)Cc2ccccc2)[C@@H](C)CN([C@@H](C)CO)C(=O)c2cc(NS(=O)(=O)c3ccccc3)ccc2O1 | -0.1

The list goes on:
SMILES | Ran FRET
C[C@H]1CN([C@@H](C)CO)C(=O)Cc2cc(NC(=O)CCN3CCOCC3)ccc2O[C@H]1CN(C)S(=O)(=O)c1cccs1 | ?
C[C@@H]1CN([C@@H](C)CO)C(=O)Cc2cc(NS(=O)(=O)c3cccs3)ccc2O[C@H]1CN(C)C(=O)Nc1ccc2c(c1)OCO2 | 5.1
C[C@@H]1CCCCO[C@H](CN(C)Cc2ccccc2)[C@@H](C)CN([C@@H](C)CO)C(=O)c2cc(NC(=O)CCCN(C)C)ccc2O1 | -0.3
C[C@@H]1CN([C@H](C)CO)C(=O)c2cccc(NC(=O)c3ccno3)c2O[C@H]1CN(C)S(=O)(=O)c1cccs1 | ?
C[C@@H]1CCCCO[C@@H](CN(C)C(=O)CCC(F)(F)F)[C@@H](C)CN([C@@H](C)CO)C(=O)c2cc(NC(=O)CCC(F)(F)F)ccc2O1 | 18*
Cc1noc(C)c1S(=O)(=O)Nc1ccc2c(c1)C(=O)N([C@H](C)CO)C[C@@H](C)[C@H](CN(C)C(=O)c1ccncc1)OCCCC[C@@H](C)O2 | -0.3
C[C@@H]1CN([C@@H](C)CO)C(=O)CCCn2cc(nn2)CO[C@@H]1CN(C)S(=O)(=O)c1ccc(Cl)cc1 | ?
COc1ccc(S(=O)(=O)N(C)C[C@@H]2Oc3c(NC(=O)c4ccncc4)cccc3C(=O)N([C@H](C)CO)C[C@H]2C)cc1 | 7.5
Cc1noc(C)c1NC(=O)N(C)C[C@@H]1Oc2c(NC(=O)Nc3ccc(C(F)(F)F)cc3)cccc2C(=O)N([C@H](C)CO)C[C@@H]1C | -2.9
C[C@@H]1CCCCO[C@H](CN(C)C)[C@@H](C)CN([C@@H](C)CO)C(=O)c2cc(NC(=O)Nc3ccc4c(c3)OCO4)ccc2O1 | 3.4
C[C@H](CO)N1C[C@H](C)[C@@H](CN(C)S(=O)(=O)c2ccc(Cl)cc2)Oc2c(cccc2N(C)C)C1=O | -2.4
C[C@@H]1CN([C@H](C)CO)C(=O)c2cccc(NS(C)(=O)=O)c2O[C@@H]1CN(C)Cc1ccncc1 | 7.1
Cc1noc(C)c1S(=O)(=O)N(C)C[C@H]1Oc2ccc(NS(=O)(=O)c3ccc(Cl)cc3)cc2CC(=O)N([C@H](C)CO)C[C@H]1C | -3.1
C[C@H]1CN([C@@H](C)CO)C(=O)Cc2cc(NS(=O)(=O)c3ccccc3)ccc2O[C@@H]1CN(C)S(=O)(=O)c1cccs1 | -1.6
Cc1noc(C)c1NC(=O)Nc1ccc2c(c1)C(=O)N([C@@H](C)CO)C[C@H](C)[C@H](CN(C)C(=O)Nc1c(C)noc1C)O2 | -4.5
COc1ccc(S(=O)(=O)Nc2cccc3c2O[C@H](CN(C)S(=O)(=O)c2cccs2)[C@@H](C)CN([C@H](C)CO)C3=O)cc1 | 0.8
C[C@@H]1CN([C@H](C)CO)C(=O)c2cccc(NC(=O)C3CCOCC3)c2O[C@@H]1CN(C)C(=O)Nc1ccccc1 | -0.6
C[C@@H]1CN([C@H](C)CO)C(=O)c2cccc(NS(=O)(=O)c3ccc(Cl)cc3)c2O[C@H]1CN(C)C(=O)Nc1cccc2ccccc12 | 0.6
CNC[C@H]1Oc2ccc(NC(=O)Cc3ccccc3)cc2C(=O)N([C@H](C)CO)C[C@@H]1C | -11
C[C@H](CO)N1C[C@H](C)[C@@H](CN(C)C(=O)Nc2ccccc2)OCCCC[C@H](C)Oc2ccc(NC(=O)Cc3ccccc3)cc2C1=O | 0.4
C[C@H](CO)N1C[C@H](C)[C@H](CN(C)Cc2ccncc2)OCCCC[C@H](C)Oc2ccc(NC(=O)c3ccncc3)cc2C1=O | -4.0
CNC[C@@H]1OCCCC[C@@H](C)Oc2ccc(NC(=O)Nc3ccccc3)cc2C(=O)N([C@@H](C)CO)C[C@H]1C | -6.1
CNC[C@H]1OCCCC[C@@H](C)Oc2ccc(NS(=O)(=O)c3c(C)noc3C)cc2C(=O)N([C@H](C)CO)C[C@@H]1C | -5.3
C[C@@H]1CCCCO[C@H](CN(C)S(=O)(=O)c2cn(C)cn2)[C@H](C)CN([C@@H](C)CO)C(=O)c2cc(NC(=O)c3ccccc3)ccc2O1 | -0.8
Cc1noc(C)c1S(=O)(=O)N(C)C[C@H]1Oc2ccc(NC(=O)CCCN(C)C)cc2C(=O)N([C@@H](C)CO)C[C@H]1C | 2.1

Continued.
SMILES | Ran FRET
C[C@@H]1CN([C@H](C)CO)C(=O)c2cccc(NS(=O)(=O)c3cn(C)cn3)c2O[C@@H]1CN(C)Cc1ccc2c(c1)OCO2 | 5.1
CC(C)NC(=O)Nc1ccc2c(c1)C(=O)N([C@H](C)CO)C[C@H](C)[C@H](CN(C)S(=O)(=O)c1ccccc1)OCCCC[C@H](C)O2 | 3.1
C[C@H](CO)N1C[C@H](C)[C@H](CN(C)C)OCCCC[C@H](C)Oc2ccc(N(C)C)cc2C1=O | -2.4
C[C@@H]1CN([C@H](C)CO)C(=O)c2cc(NS(=O)(=O)c3cccs3)ccc2O[C@H]1CN(C)C(=O)NC1CCCCC1 | 4.7
C[C@@H]1CCCCO[C@@H](CN(C)S(=O)(=O)c2ccccc2)[C@@H](C)CN([C@@H](C)CO)C(=O)c2cc(NC(=O)Cc3ccccc3)ccc2O1 | 0.4
Cc1ccc(OC(=O)N(C)C[C@@H]2OCc3cn(nn3)CCCC(=O)N([C@@H](C)CO)C[C@@H]2C)cc1 | -6.0
Cc1noc(C)c1NC(=O)N(C)C[C@H]1OCCCC[C@@H](C)Oc2ccc(NC(=O)c3ccncc3)cc2C(=O)N([C@@H](C)CO)C[C@@H]1C | -6.1
C[C@H]1CN([C@@H](C)CO)C(=O)CCCn2nncc2CO[C@@H]1CN(C)S(=O)(=O)c1ccc2ccccc2c1 | 1.6
C[C@H]1CN([C@@H](C)CO)C(=O)c2cc(NC(=O)Nc3ccc4c(c3)OCO4)ccc2O[C@@H]1CN(C)S(=O)(=O)c1cccs1 | -1.4
C[C@@H]1CN([C@H](C)CO)C(=O)CCCn2cc(nn2)CO[C@H]1CN(C)C(=O)CCCN(C)C | -2.2
CNC[C@H]1OCCCC[C@@H](C)Oc2ccc(NC(=O)c3ccncc3)cc2C(=O)N([C@@H](C)CO)C[C@@H]1C | -4.3
Cc1noc(C)c1S(=O)(=O)N(C)C[C@H]1Oc2ccc(NC(=O)Cc3cn(C)c4ccccc34)cc2CC(=O)N([C@H](C)CO)C[C@H]1C | 8.1
C[C@H](CO)N1C[C@H](C)[C@H](CN(C)S(=O)(=O)c2cccs2)Oc2ccc(NC(=O)Nc3ccc4c(c3)OCO4)cc2C1=O | 1.7
C[C@@H]1CN([C@@H](C)CO)C(=O)Cc2cc(NC(=O)Cn3cnnn3)ccc2O[C@H]1CN(C)C(=O)Nc1cccc2ccccc12 | ?
C[C@@H]1CN([C@H](C)CO)C(=O)Cc2cc(NS(=O)(=O)c3ccccc3)ccc2O[C@H]1CN(C)C(=O)NC1CCCCC1 | -0.8
C[C@@H]1CCCCO[C@@H](CN(C)Cc2ccc(C(=O)O)cc2)[C@H](C)CN([C@H](C)CO)C(=O)c2cc(NC(=O)Nc3ccc(F)cc3)ccc2O1 | 0.6
C[C@H]1CN([C@@H](C)CO)C(=O)c2cc(NC(=O)C3CC3)ccc2O[C@@H]1CN(C)S(=O)(=O)c1cccs1 | -0.7
COc1ccc(CN(C)C[C@H]2Oc3ccc(NC(=O)Nc4ccc(OC)cc4)cc3C(=O)N([C@@H](C)CO)C[C@@H]2C)cc1 | -4.2
C[C@H](CO)N1C[C@H](C)[C@@H](CN(C)S(=O)(=O)c2cccs2)Oc2ccc(NC(=O)Cc3ccccc3)cc2CC1=O | 20*
CNC[C@H]1OCCCC[C@H](C)Oc2ccc(NC(=O)Nc3ccccc3)cc2C(=O)N([C@H](C)CO)C[C@H]1C | -1.1
C[C@H]1CN([C@@H](C)CO)C(=O)Cc2cc(NC(=O)NC3CCCCC3)ccc2O[C@@H]1CN(C)S(=O)(=O)c1cccs1 | -7.0
C[C@H](CO)N1C[C@H](C)[C@H](CN(C)S(=O)(=O)c2cccs2)Oc2ncc(Br)cc2C1=O | -0.1
COc1ccc(S(=O)(=O)N(C)C[C@@H]2Oc3ccc(NS(=O)(=O)c4ccc(Cl)cc4)cc3C(=O)N([C@@H](C)CO)C[C@H]2C)cc1 | -0.8
C[C@H](CO)N1C[C@H](C)[C@@H](CN(C)C(=O)CCC(F)(F)F)OCCCC[C@H](C)Oc2ccc(NC(=O)CCC(F)(F)F)cc2C1=O | -3.7

Taken from above.
C[C@H]1CN([C@@H](C)CO)C(=O)c2cc(NC(=O)C3CC3)ccc2O[C@@H]1CN(C)S(=O)(=O)c1cccs1 in Ran FRET is entered as -0.7
Cc1noc(C)c1NC(=O)N(C)C[C@H]1OCCCC[C@@H](C)Oc2ccc(NC(=O)c3ccncc3)cc2C(=O)N([C@@H](C)CO)C[C@@H]1C in Ran FRET is entered as -6.1

Some of the entries so far, as labelled records.
Compound: C[C@H]1CN([C@@H](C)CO)C(=O)CCCn2nncc2CO[C@@H]1CN(C)S(=O)(=O)c1ccc2ccccc2c1
  Ran FRET: 1.6

Compound: C[C@H]1CN([C@@H](C)CO)C(=O)c2cc(NC(=O)Nc3ccc4c(c3)OCO4)ccc2O[C@@H]1CN(C)S(=O)(=O)c1cccs1
  Ran FRET: -1.4

Compound: C[C@@H]1CN([C@H](C)CO)C(=O)CCCn2cc(nn2)CO[C@H]1CN(C)C(=O)CCCN(C)C
  Ran FRET: -2.2

Random excerpt: 3 compounds from above
SMILES | Ran FRET
COc1ccc(CN(C)C[C@@H]2Oc3c(NS(=O)(=O)c4cn(C)cn4)cccc3C(=O)N([C@@H](C)CO)C[C@H]2C)cc1 | 5.7
C[C@@H]1CCCCO[C@@H](CN(C)C(=O)CCC(F)(F)F)[C@@H](C)CN([C@@H](C)CO)C(=O)c2cc(NC(=O)CCC(F)(F)F)ccc2O1 | 18*
C[C@H](CO)N1C[C@H](C)[C@@H](CN(C)C(=O)Nc2ccccc2)Oc2ccc(NC(=O)CCC(F)(F)F)cc2CC1=O | -1.1
